Vif TR-FRET: HIV-1 Vif–A3G interaction blockers – biochemical, TR-FRET, GST-Vif 1-94, biotin-A3G peptide, dose response retest, primary screen (AID 1117319); TR-FRET GST-Vif / biotin-A3G peptide binding; higher % means a stronger effect; test concentration not given here; strong numbers were not always called active; inhibition, %, or IC50 in µM where a hit was titrated; 260,000 compounds, 0.57% hits;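 active = above the screen mean plus three standard deviations and confirmed in dose response; inconclusive = results disagree or hit not tested in dose response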;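 note: Vif residues 1-94 fused to GST binding biotinylated APOBEC3G peptide 110-148; 0% = full assay without inhibitor and 100% = GST in place of GST-Vif; retest series ran down from 100 µM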
ALR inh: blocks human ALR sulfhydryl oxidase activity; 290,000 compounds, 3.8% hits; AID 485317; purified ALR, DTT oxidation, H2O2 HRP-luminol luminescence; inhibition, % (test concentration not listed); P55789;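 active = mean and each replicate at 75% or more; inconclusive = only one of the two met; inactive = neither met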;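 note: stock transfer was 7.5 nL into about 7.5 µL; 0% = neutral wells and 100% = wells with inactivated enzyme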
Target sequence (P55789 whole entry, looked up): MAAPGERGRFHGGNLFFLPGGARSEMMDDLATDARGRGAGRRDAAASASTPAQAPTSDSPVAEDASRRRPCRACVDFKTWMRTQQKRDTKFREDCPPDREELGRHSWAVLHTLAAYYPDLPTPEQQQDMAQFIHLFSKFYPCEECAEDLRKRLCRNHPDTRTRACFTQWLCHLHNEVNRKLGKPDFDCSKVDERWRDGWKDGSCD
Ecoli rRNA inh: inhibits bacterial ribosomal RNA function over humanized ribosomes. E. coli WT GFP vs humanized-ribosome RFP mutants, fluorescence, 24 h; active compounds read low; DMSO median 0, no signal -100. GFP signal change (wild-type ribosome), % (test concentration not listed). 350,000 compounds, 1.6% hits. AID 720706;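 active = significant combined selectivity score with lowered wild-type GFP, culture density cut under 30%, mutant RFP and density less affected; inactive = any of these conditions unmet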; note: one replicate is shown; some compounds called inactive have numbers as strong as hits
MLL AF4-AF9 inh: inhibitors of human MLL-AF4/AF9 interaction; P42568; AlphaScreen, biotin-AF4 peptide binding to FLAG-AF9; inhibition, % at 10 µM; 350,000 compounds, 0.47% hits; AID 651704;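 active = every replicate reaching a set inhibition limit, whatever the replicate mean, cut at about 25% in these data; inconclusive = mean inhibition reaches that limit but some replicates miss it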;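 note: 0% = plate neutral control median and 100% = total signal loss; the record names both 10 and 1 µM as test concentration; the first replicate is given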
Target sequence (P42568 whole entry, looked up): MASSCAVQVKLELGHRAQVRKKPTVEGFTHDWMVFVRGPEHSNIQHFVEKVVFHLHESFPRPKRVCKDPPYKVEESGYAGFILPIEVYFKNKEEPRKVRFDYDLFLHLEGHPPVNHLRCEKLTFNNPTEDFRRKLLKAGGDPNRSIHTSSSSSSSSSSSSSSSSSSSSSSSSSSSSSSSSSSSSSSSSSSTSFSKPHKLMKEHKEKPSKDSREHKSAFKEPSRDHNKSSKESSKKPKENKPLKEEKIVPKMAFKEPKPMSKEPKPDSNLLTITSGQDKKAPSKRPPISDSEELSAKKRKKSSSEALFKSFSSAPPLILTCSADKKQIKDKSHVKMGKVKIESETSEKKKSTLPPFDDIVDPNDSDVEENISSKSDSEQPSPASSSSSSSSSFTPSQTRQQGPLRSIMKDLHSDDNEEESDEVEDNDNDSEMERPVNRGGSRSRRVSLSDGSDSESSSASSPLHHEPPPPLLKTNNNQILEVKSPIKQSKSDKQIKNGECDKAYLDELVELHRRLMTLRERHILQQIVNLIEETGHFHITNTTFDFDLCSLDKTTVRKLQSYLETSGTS
E coli growth: inhibitors of Escherichia coli growth | OD600, 23 h; active compounds read low | OD600 absorbance (concentration not given with the values) | 330,000 compounds, 0.21% hits;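 active = OD600 absorbance below the run mean of sample wells minus 3.6 SD, in any replicate, cut at about 0.56 in these data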;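 note: stock transfer was 300 nL into about 60 µL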
FGF22 binding: shifts melting point of recombinant human FGF22. 340,000 compounds, 1.5% hits. recombinant FGF22 thermal shift, SYPRO orange fluorescence; percent of sucrose octasulfate shift, DMSO zero. calls only at 9.99 µM. AID 651658. Q9HCT0;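 active = melting point raised past a set limit in the mean and every replicate; inconclusive = no clear call; three in four hits are not shown here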
Target sequence (Q9HCT0 whole entry, looked up): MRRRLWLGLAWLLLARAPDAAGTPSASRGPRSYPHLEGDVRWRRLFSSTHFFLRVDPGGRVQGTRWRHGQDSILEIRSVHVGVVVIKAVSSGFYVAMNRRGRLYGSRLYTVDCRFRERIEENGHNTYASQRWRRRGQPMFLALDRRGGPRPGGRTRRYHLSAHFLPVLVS
HNF4A DNA FP: change in binding of human HNF4 alpha to DNA. activity change, % at 10 µM. 360,000 compounds, 0.3% hits. AID 1224865. HNF4a-FITC DNA binding, fluorescence polarization, 1 h. P41235; in the data active = activity change above about 30%, passing the limit was not always enough;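 note: controls were the assay level and a saturating level of protein; the project sought stronger binding though the title names inhibitors; some compounds called inactive have numbers as strong as hits; positive values seem to mean higher polarization but the record does not say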
Ecoli rRNA inh OD600: also measured in Ecoli rRNA inh; calls as there; OD600 change, %; measured here: OD600 growth;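 optical density of the mix in the first replicate; 0 = DMSO median and -100 = no signal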
Ecoli rRNA inh RFP: second read-out of Ecoli rRNA inh, no call of its own (marks repeat the call); RFP signal change, %; measured here: RFP humanized mutant strains;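 first replicate; 0 = DMSO median and -100 = no signal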
* = called active by the depositor; i = inactive; ? = inconclusive; . = not tested or not shown; & = joins results of further samples. A portion of the library; the hit share may differ from the screen's.

Each structure is followed by: Vif TR-FRET | ALR inh | Ecoli rRNA inh | Ecoli rRNA inh OD600 | Ecoli rRNA inh RFP | MLL AF4-AF9 inh | E coli growth | FGF22 binding | HNF4A DNA FP
> Cc1ccc2c(c1)c(C)c(C)n2CC(O)CN1CCCCC1C (stereo not drawn)
→ ? | 95* | 3 | -1 | 6.0 | 8.8 | 0.75 | i | 1.6
> O=[N+]([O-])c1ccc(O)c(C(C#Cc2ccccc2)N2CCOCC2)c1 (stereo not drawn)
→ 10% | . | -32* | -10* | 0.3* | -14 | 0.66 | i | 1.6
> COc1ccc2c(c1)c(C(=O)CN1CCN(C(=O)c3ccco3)CC1)c(C)n2C
→ 5% | -11 | . | . | . | . | 0.71 | . | -0.3
> O=C(c1ccc(-c2nc3ccccc3s2)s1)N1CCOCC1
→ . | -4 | -23 | -19 | -5.6 | 1.2 | 0.68 | i | .
> CC(C)NC(=S)N1CCC(Cc2ccccc2)CC1
→ -2% | -3 | -2 | -8 | -2.4 | -7.6 | 0.69 | i | -0.2
> COC(=O)c1nc(NC(=O)C(C)(C)C)n[nH]1
→ -3% | 20 | . | . | . | . | 0.72 | . | -1.4
> COC(=O)c1cc2c(ccn2-c2ccc(F)cc2)n1Cc1cccc(OC)c1
→ . | 0 | . | . | . | . | 0.71 | . | -3.4
> CN1c2ccc(Br)cc2[C@H]2[C@H](CCN2C(=O)C2CC2)[C@H]1CO
→ . | . | -8 | -18 | 0.3 | -2.1 | . | i | .
> CCCNC(=O)C1(C)CCCN(Cc2ccccc2Cl)C1 (stereo not drawn)
→ . | . | 1 | 4 | -0.5 | -1.2 | . | i | -1.9
> C/C=C/c1ccc2c(c1)O[C@H](CN(C)C(=O)NC1CCCCC1)[C@@H](C)CN([C@@H](C)CO)S2(=O)=O
→ . | . | -2 | -11 | 0.6 | -1.1 | . | i | .
> COc1ccc(S(=O)(=O)N(C)C[C@H]2Oc3c(NC(=O)Nc4ccc(F)cc4)cccc3C(=O)N([C@@H](C)CO)C[C@H]2C)cc1
→ . | . | -6 | -15 | 0.3 | 4.2 | . | i | .
> COc1cccc(-c2cnc3c(c2)C(=O)N([C@H](C)CO)C[C@@H](C)[C@H](CN(C)Cc2ccncc2)O3)c1
→ . | . | 1 | 1 | -1.7 | -1.8 | . | i | .
> CC(C)NC(=O)Cn1nnc(-c2ccc(Cl)cc2)n1
→ -4% | -5 | 29 | 10 | 2.4 | -2.1 | 0.63 | i | 0.3
> O=C1CC(c2ccsc2)c2ccc3ccccc3c2N1 (stereo not drawn)
→ . | 0 | -44 | -69 | 0.7 | 2.0 | 0.71 | . | 0.3
> Cc1ccc(SCc2nc3ccccc3n2CC(=O)Nc2c(C)cccc2C)cc1
→ 9% | -8 | . | . | . | . | 0.73 | . | 2.6
> COc1ccccc1CNC(=O)C1CCN(S(=O)(=O)N2CCCCC2)CC1
→ -5% | -2 | -10 | -11 | -1.8 | -39 | 0.68 | i | -1.9
> CCn1c(CC(=O)Nc2ccc(F)cc2)nnc1SCC(=O)NC1=NCCS1
→ . | . | 8 | 4 | 5.0 | 0.6 | 0.69 | i | -0.3
> COc1ccc(C(O)C(O)(C(=O)OC(C)C)c2ccc(C)cc2)cc1 (stereo not drawn)
→ . | . | -12 | -1 | -6.8 | -0.2 | . | i | -1.7
> Cc1noc(C)c1NC(=O)Nc1ccc2c(c1)CC(=O)N([C@@H](C)CO)C[C@H](C)[C@H](CN(C)Cc1ccccc1)O2
→ . | . | -1 | 3 | -3.4 | 0.1 | . | i | .
> C=CCN1c2ccccc2[C@]23C[C@@H](C(=O)OC)N(C(=O)NC4CCCC4)C2=NC(C(=O)OC)=C(C(=O)OC)[C@H]13
→ . | -2 | 4 | 7 | 1.2 | -1.6 | . | i | -2.6
> C[C@@H]1CCCCO[C@H](CN(C)Cc2ccc(C(F)(F)F)cc2)[C@@H](C)CN([C@H](C)CO)C(=O)c2cc(NS(=O)(=O)c3cn(C)cn3)ccc2O1
→ -1% | . | 10&-1 | 5&-4 | -3.8&-0.3 | -1.9&-3.3 | . | i | -2.3
> CCOc1cc(C(=S)N2CCOCC2)ccc1OS(=O)(=O)c1ccc(NC(C)=O)cc1
→ -3% | -8 | . | . | . | . | 0.72 | . | -1.3
> CCOC(=O)c1ccc(-c2ccc(N3C(c4ccsc4)=Cc4ccc(F)cc4C3c3c[nH]c4ccc(C#N)cc34)cc2)cc1F (stereo not drawn)
→ . | . | -32 | -27 | 0.7 | 1.6 | . | i | 15
> C[C@@H]1CN([C@H](C)CO)C(=O)c2cc(C3=CCCCC3)cnc2O[C@H]1CN(C)C(=O)c1ccccc1
→ . | . | -6 | -19 | 0.0 | -0.4 | . | i | .
> Cc1cccc(CSC(Nc2ccc(F)cc2)=C(C#N)C#N)c1
→ 3% | . | . | . | . | . | 0.66 | . | -1.1
> C=C(C)Cn1c2ccc(NC(=S)NCc3ccccc3F)cc2c(=O)n1C
→ . | . | -23* | -13* | 7.0* | -11 | . | i | -0.1
> Cc1cc(OCC(=O)NCc2ccccn2)c2c(C)cc(=O)oc2c1
→ . | -2 | 6 | -7 | -2.0 | -0.5 | 0.69 | i | -3.0
> COc1cccc(CNC(=O)CCn2ccc3cc(S(=O)(=O)N4CCCC4)ccc32)c1
→ . | -7 | -3 | -7 | -2.5 | -1.5 | 0.68 | i | 8.2
> COC(=O)C1=CN(Cc2ccc(OC)c(OC)c2)C=C(C(=O)OC)C1c1ccc(F)cc1
→ -7% | -4 | 5 | -9 | -1.9 | -26 | . | i | 2.5
> OC[C@@H]1[C@@H](c2ccccc2)C2(CN(CCC(F)(F)F)C2)N1Cc1nccs1
→ . | . | 2 | 10 | 1.7 | -1.0 | . | i | .
> COc1ccc(NC(=O)COC(=O)c2ccc(F)cc2F)cc1
→ -1% | -12 | 10 | -8 | -1.4 | -2.4 | 0.71 | i | 3.2
> CCc1ccccc1NC(=O)CCNS(=O)(=O)c1ccc2c(c1)CCC(=O)N2
→ . | 0 | 4 | 7 | 6.0 | 1.6 | 0.71 | i | 1.8
> O=C(c1ccccc1Sc1ccc([N+](=O)[O-])cc1Cl)N1CCOCC1
→ 18% | -4 | -13 | 9 | 6.7 | 3.6 | 0.71 | i | 4.0
> C/C(=N\Nc1cc(N2CCOCC2)ncn1)c1ccccc1
→ -2% | 11 | -10 | 10 | 2.5 | 6.9 | . | i | 3.0
> CC[C@@H](C)C(NC(=O)OC(C)(C)C)c1cn([C@@H](Cc2cc3ccccc3[nH]2)C(=O)N2CCN(C(=O)OC(C)(C)C)CC2)nn1 (stereo partly drawn)
→ -4% | -4 | 7 | 9 | -1.2 | 2.1 | . | i | 5.3
> C[C@@H]1CN([C@@H](C)CO)C(=O)Cc2cc(N(C)C)ccc2O[C@@H]1CN(C)S(C)(=O)=O
→ . | . | 4 | 3 | 1.7 | -0.5 | . | i | .
> Cc1cc(Oc2ccc(N)cn2)ccc1Cl
→ -4% | 0 | 69 | 16 | 11 | 3.2 | 0.69 | i | 59
> O=C(C[C@@H]1C[C@@H]2c3cc(NC(=O)CC4CC4)ccc3O[C@@H]2[C@H](CO)O1)NCc1cc(F)ccc1F
→ . | . | 3 | 7 | 2.3 | -1.8 | . | i | .
> Cc1cccc(-n2c(SCC(=O)Nc3cccc(S(=O)(=O)NC4=NCCCCC4)c3)nc3ccccc3c2=O)c1C
→ 28% | . | -1 | 6 | 3.0 | 1.7 | 0.71 | i | -0.4
> O=C(CCCOc1ccc(Cl)cc1Cl)N/N=C/c1ccc(Cl)cc1
→ 5% | . | 0 | 5 | -1.8 | -0.6 | . | i | -1.9
> Cc1c(-c2cc(C(=O)O)on2)cnn1C
→ 9% | -2 | 19 | 15 | -0.1 | 0.7 | 0.69 | i | -0.4
> O=C(N[C@@H]1CC[C@@H](CCNS(=O)(=O)Cc2ccccc2)O[C@@H]1CO)c1ccc2c(c1)OCO2
→ . | . | 0 | -4 | -0.6 | 0.1 | . | i | .
> C=CCn1c(SCC(=O)Nc2nc(C)cs2)nnc1C(CO)NC(=O)c1ccccc1 (stereo not drawn)
→ 15%&-11% | 85* | . | . | . | . | 0.78 | . | -0.6
> O=C(c1ccncc1)N(c1ccc2oc3c(c2c1)CCCC3)S(=O)(=O)c1ccc(F)cc1
→ 2% | -8 | -3 | -39 | 43 | 0.5 | 0.74 | i | 1.4
> CCOc1ccc(C(=O)NCC(=O)NC(C)CCc2ccccc2)cc1OCC (stereo not drawn)
→ . | -9 | 3 | -3 | 3.4 | 1.1 | 0.68 | i | 1.1
> CO[C@H]1CN(C)C(=O)c2ccc(NC(C)=O)cc2OC[C@H](C)N(C(=O)C2CC2)C[C@H]1C
→ . | . | 0 | -16 | -0.9 | -1.9 | . | i | .
> Cc1cc(C)n(-c2nnc3c4ccccc4n(C)c3n2)n1
→ -6% | -6 | 10 | 8 | -1.3 | 0.3 | 0.67 | i | -2.0
> COc1cccc(NC(=O)C2CC(=O)N(C)C(=Nc3cccc(F)c3)S2)c1 (stereo not drawn)
→ 1% | -1 | -6 | -1 | 9.9 | -8.0 | 0.7 | i | 3.4
> O=[N+]([O-])c1ccc(C2(O)CN(c3ccccc3)C3=[N+]2CCS3)cc1 (stereo not drawn)
→ . | . | 9 | 16 | 7.7 | -8.6 | 0.72 | i | -3.8
> COCC(=O)N/N=C\c1ccc(OC/C=C/c2ccccc2)c(OC)c1
→ -5% | -21 | -3 | -11 | -0.9 | 2.5 | . | i | -0.8
> O=S(=O)(Cc1ccccc1)Nc1ccc(S(=O)(=O)NCC2CCCO2)cc1 (stereo not drawn)
→ 0% | 2 | . | . | . | . | 0.72 | . | 0.0
> O=C1CCC(=O)O1
→ . | -8 | 6 | 0 | -0.1 | . | 0.64 | i | 5.9
> Cc1ccc(NS(=O)(=O)c2ccc3c(c2)NC(=O)CC(=O)N3)cc1C
→ ? | -25 | 4 | 4 | -4.1 | -2.9 | 0.7 | i | -0.7
> COc1ccc2cc(C(N)=O)c(=Nc3ccccc3)oc2c1
→ -1% | -1 | 8 | 5 | -1.4 | 0.0 | 0.72 | i | 2.1
> CC1=C(C(=O)NCc2ccccc2)C(c2cccs2)n2ncnc2N1 (stereo not drawn)
→ 5% | -19 | . | . | . | . | 0.69 | . | -3.9
> CNC[C@H]1Oc2ccc(NS(=O)(=O)c3ccc(OC)cc3)cc2CC(=O)N([C@@H](C)CO)C[C@@H]1C
→ . | . | 0 | 6 | -1.7 | -3.3 | . | i | .
> CN1CC(=O)N(CC(=O)Nc2cc(Cl)cc(Cl)c2)C1=O
→ . | 38 | 4 | 3 | 4.6 | -0.9 | 0.68 | i | 3.8
> O=C(Cn1nnc2ccccc21)NNC(=S)NC1CCCCC1
→ 4% | 20 | 2 | 1 | -3.9 | -1.6 | 0.68 | i | -0.3
> COCCNC(=O)c1c[nH]c2ccc(S(=O)(=O)N3CCc4ccccc43)cc2c1=O
→ -4% | 34 | 5 | 22 | 1.8 | -2.1 | 0.69 | i | 3.3

3 compounds from above, sorted by formula weight, lowest first.
Each structure is followed by: Vif TR-FRET | ALR inh | Ecoli rRNA inh | Ecoli rRNA inh OD600 | Ecoli rRNA inh RFP | MLL AF4-AF9 inh | E coli growth | FGF22 binding | HNF4A DNA FP
> Cc1c(-c2cc(C(=O)O)on2)cnn1C
→ 9% | -2 | 19 | 15 | -0.1 | 0.7 | 0.69 | i | -0.4
> Cc1cc(C)n(-c2nnc3c4ccccc4n(C)c3n2)n1
→ -6% | -6 | 10 | 8 | -1.3 | 0.3 | 0.67 | i | -2.0
> CC1=C(C(=O)NCc2ccccc2)C(c2cccs2)n2ncnc2N1 (stereo not drawn)
→ 5% | -19 | . | . | . | . | 0.69 | . | -3.9
